Screening results from PubChem.
Measles inh: inhibitors of measles virus growth in infected cells | infected Vero cells, GFP fluorescence, 64 h; active compounds read low | z-score (test concentration not listed) | 33,000 compounds, 0.1% hits | AID 745;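 active = z-score under -3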;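 note: score is relative to mean and SD of the compound wells of a plate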
Numbers without * were called inactive. This is a subset; rates above refer to the full screens.

`Cc1ccc(NC(=O)CN(Cc2ccccc2)S(=O)(=O)c2ccc(Br)cc2)cc1C` gave Measles inh -0.61.
`Cc1sc2ncnc(SCC(=O)O)c2c1C` gave Measles inh 0.38.
CCN1C(=O)c2cccc3c(S(=O)(=O)Nc4nc5c(s4)CCCC5)ccc1c23 was read as Measles inh -0.32.
Screening Cc1cc2c(=O)n(CC(=O)Nc3ccc(Cl)cn3)cnc2s1 returned Measles inh 0.27.
`Nc1ncnc(SC2=NCCS2)c1[N+](=O)[O-]` gave Measles inh -0.27.
C(=Nc1cccc2ccccc12)c1ccccc1 was read as Measles inh -0.81.
Screening O=C1C=C(Nc2ccc(Cl)cc2)C(=O)N1c1ccccc1 returned Measles inh 2.2.
For O=c1c2sccc2[nH]c(=S)n1CC1CCCO1 (centres undefined) the results were Measles inh -0.25.
COc1cc(C(=O)Nc2nc3ccc4nc(C)sc4c3s2)cc(OC)c1OC was read as Measles inh 0.67.
For CCCOc1cc(C)nc(-c2ccccc2O)n1 the results were Measles inh -1.3.
`Cc1oc2ccc(OC(=O)c3ccco3)cc2c1C(=O)OC(C)C` gave Measles inh -0.57.
CC1CCN(CCNS(=O)(=O)c2ccc3c(c2)CCC(=O)N3)CC1 was read as Measles inh 1.1.
Screening COc1cc(C2NC(=O)c3c(sc4c3CCN(C)C4)N2)cc(OC)c1OC (centres undefined) returned Measles inh 1.6.
Screening Oc1cccc2ccc(C=Cc3cc4c(cc3Br)OCO4)nc12 returned Measles inh 0.88.
For CCC(=O)Nc1sc2c(c1C(=O)OC)C(C(=O)OC)CC2 (centres undefined) the results were Measles inh 0.22.

The closing 3 compounds of the part before open the next one.
Screening COc1cc(C2NC(=O)c3c(sc4c3CCN(C)C4)N2)cc(OC)c1OC (centres undefined) returned Measles inh 1.6.
Screening Oc1cccc2ccc(C=Cc3cc4c(cc3Br)OCO4)nc12 returned Measles inh 0.88.
For CCC(=O)Nc1sc2c(c1C(=O)OC)C(C(=O)OC)CC2 (centres undefined) the results were Measles inh 0.22.
For NC(=O)c1c(N)c(C(N)=S)n2c1CCC2 the results were Measles inh -0.32.
COc1ccc(-c2noc(CCC(=O)Nc3ccc(OC)c(OC)c3)n2)cc1 was read as Measles inh 0.21.
Screening COC(=O)c1ccc(C=Nc2ccc(Cl)c(-c3nc4ccc(C)cc4o3)c2)cc1 returned Measles inh -0.64.
O=C(O)c1[nH]c2ccccc2c1CC(=O)N1CCN(C(=O)c2ccco2)CC1 was read as Measles inh -1.4.
Screening CCN1CCN(C(=O)c2oc3ccc(S(=O)(=O)N4CCCCCC4)cc3c2C)CC1 returned Measles inh 0.03.
Screening Cc1ccc(NS(=O)(=O)c2cc(C(=O)Nc3cccc([N+](=O)[O-])c3)ccc2Br)cc1 returned Measles inh -1.5.
`COc1ccc(-c2c(C#N)c(SCc3ccccc3)nc(C)c2C(=O)Nc2ccccc2)cc1` gave Measles inh -0.32.
Screening O=C(CCn1nc(-c2ccc(Cl)cc2)ccc1=O)NCCCN1CCCCC1 returned Measles inh -0.79.
`Cc1ccc(S(=O)(=O)N2CCN(C(C)CCc3ccccc3)CC2)cc1` (centres undefined) gave Measles inh -0.74.
`O=C(Cn1cc([N+](=O)[O-])cn1)NCC1CCCO1` (centres undefined) gave Measles inh -1.6.
`O=C(c1scc2c1CCCC2)N1CCN(c2ccccc2)CC1` gave Measles inh -0.89.
Screening CCCOc1ccc(N2C(=O)CC(NCc3cccnc3)C2=O)cc1 (centres undefined) returned Measles inh -0.38.
O=[N+]([O-])c1ccc(Sc2nnc(COc3ccccc3)n2-c2ccccc2)c2cccnc12 was read as Measles inh -0.35.
CCOc1ccccc1NC(=O)c1oc(=O)c2ccccc2c1-c1ccccc1 was read as Measles inh -0.61.
For CC(=O)N(CCCN(C)C)Cc1ccccn1 the results were Measles inh -0.32.
`COCCN1C=C(C(=O)OC)C(c2cc3c(cc2Br)OCO3)C(C(=O)OC)=C1` gave Measles inh 0.02.
COc1ccc(C2C(C(=O)Nc3cc(Cl)ccc3OC)c3ccccc3C(=O)N2Cc2ccc(F)cc2)cc1 (centres undefined) was read as Measles inh -0.35.
`COc1ccccc1C=C1CCCC2=C1Nc1nnnn1C2c1ccccc1OC` (centres undefined) gave Measles inh -0.18.
Screening CCOC(=O)C1=C(C)NC2=C(C(=O)CCC2)C1c1cccc(OC)c1OC (centres undefined) returned Measles inh 0.26.
Screening CCOC(=O)c1c(C)oc2ccc(N(C(=O)c3ccncc3)S(=O)(=O)c3ccc(F)cc3)cc12 returned Measles inh -0.48.
For O=C(O)CSc1ncnc2c1oc1ccccc12 the results were Measles inh 1.1.
Screening COc1ccccc1N(CC(=O)Nc1ccc(Cl)cc1C)S(C)(=O)=O returned Measles inh 0.48.
`COc1ccc(C(=O)N2CCN(C(=O)c3ccc(F)cc3)CC2)cc1OC` gave Measles inh -0.83.
For CC(C)(CC(=O)N1CC=C(c2ccccc2)CC1)CC1=NS(=O)(=O)c2ccccc2N1 the results were Measles inh 0.4.
Screening Cc1ccc(C(=O)N2N=C(CCC(C)C)CC2(O)C(F)(F)F)cc1 (centres undefined) returned Measles inh -0.33.
For C=C(C)c1cccc(C(C)(C)NC(=O)Nc2cc(OC)ccc2OC)c1 the results were Measles inh 0.02.
`CCN(CC)CCCNc1cc(C(F)(F)F)c(C#N)c2nc3ccccc3n12` gave Measles inh 2.3.
For COc1ccc(C(=O)Nc2cccc(-c3nc4ncccc4o3)c2)cc1[N+](=O)[O-] the results were Measles inh -0.45.
Cc1nn(C(C)(C)C)c(OC(=O)c2ccccc2Br)c1S(=O)(=O)c1ccccc1 was read as Measles inh 0.51.
CSCCC(C(=O)Nc1cccc(C(C)=O)c1)N1C(=O)C2C3c4ccccc4C(c4ccccc43)C2C1=O (centres undefined) was read as Measles inh -0.29.

Reprinted at random: two entries already listed.
`COCCN1C=C(C(=O)OC)C(c2cc3c(cc2Br)OCO3)C(C(=O)OC)=C1` gave Measles inh 0.02.
For C=C(C)c1cccc(C(C)(C)NC(=O)Nc2cc(OC)ccc2OC)c1 the results were Measles inh 0.02.

New compounds follow
For Cc1ccc(C)n1-c1ccccc1C(=O)O the results were Measles inh 3.
Screening COc1ccc(-c2cc(C)c3c(ccc4ccccc43)n2)cc1 returned Measles inh 0.94.
`C=CCn1c(N2CCCCCC2)nc2c1c(=O)[nH]c(=O)n2C` gave Measles inh 1.2.
For O=C(Cc1c(C(=O)O)[nH]c2ccc(Cl)cc12)Nc1nc2ccccc2s1 the results were Measles inh 0.8.
Screening CCOC(=O)c1c(N=c2oc3cc(O)ccc3cc2C(=O)Nc2ccccc2)sc2c1CCCC2 returned Measles inh -0.24.
Screening COc1ccc(-n2c3c(cc(C(=O)NCc4ccco4)c2=O)C(=O)CC(C)(C)C3)cc1 returned Measles inh 0.53.
For Oc1ccccc1C1N(Cc2ccccc2)CCN1Cc1ccccc1 the results were Measles inh 1.8.
For CCn1c(SCC(=O)c2ccc(Cl)cc2)nc2c(c1=O)SC(C)C2 (centres undefined) the results were Measles inh -0.21.
Screening Cc1ccc(NC(=O)Cn2c3ccccc3c(=O)c3ccccc32)cc1C returned Measles inh 0.34.
`NC(=O)c1c(NC(=O)c2cc(-c3cccc(Cl)c3)on2)sc2c1CCCC2` gave Measles inh -0.25.
For CCc1nc2sc3c(N4CCOCC4)ncnc3c2c2c1CCCC2 the results were Measles inh 1.3.
For O=c1oc2ccc(O)cc2s1 the results were Measles inh -0.37.
For Cc1cccc(C)c1Nc1c(-c2ccccc2)nc2cnccn12 the results were Measles inh -0.47.
`O=C(Nc1ccccc1C(=O)O)c1ccc2c(c1)C(=O)N(c1ccc(Br)cc1)C2=O` gave Measles inh -0.53.
For CCOC(=O)C1=C(c2ccccc2)NC(=S)NC1c1ccc(C)cc1 (centres undefined) the results were Measles inh -0.77.

Part of the list above in order of SMILES length, low to high.
For CCc1nc2sc3c(N4CCOCC4)ncnc3c2c2c1CCCC2 the results were Measles inh 1.3.
Screening O=C(CCn1nc(-c2ccc(Cl)cc2)ccc1=O)NCCCN1CCCCC1 returned Measles inh -0.79.
For O=C(Cc1c(C(=O)O)[nH]c2ccc(Cl)cc12)Nc1nc2ccccc2s1 the results were Measles inh 0.8.

Further structures:
For CC1Cc2nc(SCC(=O)NCCc3ccccc3)n(Cc3ccccc3)c(=O)c2S1 (centres undefined) the results were Measles inh 0.21.
For O=C(CC(NCc1cccnc1)C(=O)O)Nc1ccccc1 (centres undefined) the results were Measles inh 0.4.
COc1ccc(C2NC(=S)NC(C)=C2C(=O)Nc2ccc(Cl)cc2)cc1OC (centres undefined) was read as Measles inh 0.17.
Cc1[nH]nc(SCC(=O)N2C(C)CCCC2C)c1[N+](=O)[O-] (centres undefined) was read as Measles inh -0.28.
Cc1ccc(-n2nc3c(c2NC(=O)c2ccccc2Br)CSC3)c(C)c1 was read as Measles inh 0.98.
`COc1ccc2oc(C)c(C(=O)OC(C)C)c2c1` gave Measles inh -0.11.
Screening O=C(c1cc(-c2ccc3c(c2)OCO3)nc2ccccc12)N1CCN(Cc2ccc3c(c2)OCO3)CC1 returned Measles inh 1.7.
`O=C1NC(=O)C2C1ON(c1ccccc1)C2c1ccccc1` (centres undefined) gave Measles inh 1.1.
`COc1ccc(C2C(C(=O)Nc3ccc(C)cc3Br)c3cc(OC)c(OC)cc3C(=O)N2C)cc1OC` (centres undefined) gave Measles inh -0.76.
For CCCCOC(=O)C1=C(C)NC2=C(C(=O)CC(C)(C)C2)C1c1ccccc1OC (centres undefined) the results were Measles inh -0.61.
COC(=O)C(NC(=O)Nc1sc2c(c1C#N)CCCC2)(Oc1ccc(F)cc1)C(F)(F)F (centres undefined) was read as Measles inh 0.67.
CC1=C(C(=O)Nc2cc(C)ccn2)C(c2ccsc2)C2=C(CCCC2=O)N1 (centres undefined) was read as Measles inh 0.57.
Screening O=C1CS/C(=N\c2nccs2)N1 returned Measles inh 1.5.
COc1ccc(NC(=O)CN(c2ccc(C)cc2)S(=O)(=O)c2ccc(OC)cc2)cc1 was read as Measles inh -0.52.
For CCOc1ccc(-c2cc(C(=O)O)c3cc(Br)ccc3n2)cc1 the results were Measles inh 0.17.

Structural class, the entries above with a CF3 group (3)
Screening Cc1ccc(C(=O)N2N=C(CCC(C)C)CC2(O)C(F)(F)F)cc1 (centres undefined) returned Measles inh -0.33.
`CCN(CC)CCCNc1cc(C(F)(F)F)c(C#N)c2nc3ccccc3n12` gave Measles inh 2.3.
COC(=O)C(NC(=O)Nc1sc2c(c1C#N)CCCC2)(Oc1ccc(F)cc1)C(F)(F)F (centres undefined) was read as Measles inh 0.67.

Continuation.
For Cc1cccc(N2CCN(c3cccc(C)c3)C2c2ccco2)c1 the results were Measles inh 1.6.
Cc1cc(N2CCC(C)CC2)nc2ccc(NC(=O)CCC(=O)N3CCN(c4cccc(C(F)(F)F)c4)CC3)cc12 was read as Measles inh -0.03.
`COc1ccc(OC)c(S(=O)(=O)N2CCCCC2C(=O)O)c1` (centres undefined) gave Measles inh 2.4.
CC(=O)C(c1ccccc1)C(C#N)(C#N)C(C#N)C#N (centres undefined) was read as Measles inh 5.
For CC(C)c1nnc(NC(=O)CSc2nc3ccccc3s2)s1 the results were Measles inh 1.2.
`O=C(NC1CCCC1)C1CCC(Cn2c(=S)[nH]c3ccccc3c2=O)CC1` (centres undefined) gave Measles inh -1.2.
`O=[N+]([O-])c1ccc(-c2cn(-c3ccccc3)c(=S)[nH]2)cc1` gave Measles inh -0.22.
`C=CCOc1ccc(/C(O)=C2\C(=O)C(=O)N(Cc3cccnc3)C2c2ccccc2F)c(C)c1` (centres undefined) gave Measles inh -0.64.
For COCCOC(=O)C1=C(C)NC2=C(C(=O)CC(c3ccccc3Cl)C2)C1c1cccs1 (centres undefined) the results were Measles inh 1.
`CCOC(=O)c1sc2nc3n(c(=O)c2c1C)N=C(c1cc2ccccc2oc1=O)CS3` gave Measles inh -0.36.
`CSc1cccc(NC(=O)C2c3ccccc3C(=O)N3CCc4ccccc4C23)c1` (centres undefined) gave Measles inh -0.11.
Cn1cc(S(=O)(=O)CC(=O)Nc2ccccc2)c2ccccc21 was read as Measles inh 1.
For COc1ccc(C2CC(=O)C3=C(C2)NC(C)=C(C(=O)Nc2ccc(C)cc2)C3c2coc3ccccc3c2=O)cc1OC (centres undefined) the results were Measles inh 2.
`CC1CN(S(=O)(=O)c2ccc(NC(=O)CCN3C(=O)c4ccccc4C3=O)cc2)CC(C)O1` (centres undefined) gave Measles inh -1.3.
Screening COc1ccc2c(c1)CCc1c(C(=O)NCc3ccc(Cl)cc3)noc1-2 returned Measles inh -0.36.
N#Cc1cn(CC(=O)Nc2ccccc2F)c2ccccc12 was read as Measles inh -0.88.
`O=C1C(c2ccc(Cl)cc2)N(C2CCCCCCC2)C(=O)CN1C1CCCC1` (centres undefined) gave Measles inh -0.88.
For COc1ccc(N2C(=O)C3C(c4ccc(F)cc4)OC4(C(=O)c5ccccc5C4=O)C3C2=O)cc1 (centres undefined) the results were Measles inh 0.57.
Screening COC(=O)c1cn(C(=O)c2ccc(C(C)(C)C)cc2)c2ccccc12 returned Measles inh -1.7.
For Cn1cc(S(=O)(=O)CC(=O)N2CCCc3ccccc32)c2ccccc21 the results were Measles inh 1.9.
